Source: PubChem
SmPrx2 inh = Schistosoma Mansoni Peroxiredoxins (Prx2). Schistosoma mansoni peroxiredoxin 2 (Prx2). S. mansoni Prx2 activity coupled to TGR/GSH (TGR is thioredoxin glutathione reductase), NADPH fluorescence loss, qHTS; some inactives read as strong as hits. Potency, µM. 65,000 compounds, 0.07% hits; active means full or partial inhibition curve with a strong effect at the top dose; inconclusive means weaker partial or single-point curve; inactive means no accepted curve; further: series up to 57 µM; many of its hits are not listed in these tables
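Prx2 activity was followed as the loss of NADPH fluorescence (ex 365/em 450 nm), read every 30 sec for 8 min after H2O2 start. The enzyme mix (50 nM Prx2, 25 nM TGR, GSH, NADPH; pH 7.4 phosphate buffer) was incubated with compound for 15 min at room temperature first.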
Anthrax LT inh = qHTS Assay for Anthrax Lethal Toxin Internalization; Cells, anthrax lethal toxin internalization, FRET ratio (460/530); 70,000 compounds, 0.67% hits; Potency, µM (highest dose often 40 µM), for inactives: at the highest dose activity change, negative = inhibition, usual class: inhibitors; AID 912, 2007; active = well fitted falling ratio curve with the 530 nm signal flat; inconclusive = other ratio curves, or a change in one channel alone; inactive = flat curves in the ratio and both channels; the % refers to the ratio; further: on the % scale 0 is the no-effect control and ±100 the full control effect; nearly all actives have a fitted effect of over 50% in size; tested in ME-180 cells; beta-lactamase reporter
Active calls of the source: *; ? = inconclusive; · = not tested or not shown; & = joins results of further samples; [ ] = another dose, or the depositor's remark. Potency means the concentration at half of the fitted maximal effect.

Values run as follows: SmPrx2 inh | Anthrax LT inh
> NC(=O)c1cc[n+](CC2=C(C(=O)[O-])N3C(=O)[C@@H](NC(=O)Cc4cccs4)[C@@H]3SC2)cc1
    >57 | 4.5%[3.58 µM]
> COc1cc2c(cc1NC(=O)CSc1nnc(Cc3cccs3)n1C)oc1ccccc12
    >57 | ?
> Cc1noc(C)c1CN1C(=O)NC(Cc2ccccc2)(Cc2ccccc2)C1=O
    >57 | 4.8%
> COc1cccc(C(=O)CSc2nnnn2C)c1
    >57 | -4.9%
> COc1ccc2[nH]c(C)c(CCN3C(=O)C4C5C=CC(C5)C4C3=O)c2c1 (centres undefined)
    >57 | -3.3%
> Cc1ccc2c(c1)-c1c(cnn1CC(=O)Nc1ccccc1N1CCN(C)CC1)CO2
    >57 | 5.01µM*
> Cc1cc(C(=O)Nc2sc(C)c(-c3ccc(F)cc3)c2C(N)=O)no1
    >57 | -14.8%
> O=C(Nc1ccc2oc(Cc3ccc(Cl)cc3)nc2c1)c1cccnc1
    >57 | ?
> CN(C)/C=N/c1c(C(=O)NCc2ccccc2)nnn1Cc1ccccc1
    >57 | -2.8%
> COC(=O)c1cccc(COC(=O)CNC(=O)c2ccco2)c1
    >57 | 12.8%
> Cc1c(NC(=O)C2CCCN2S(=O)(=O)c2ccc(Cl)cc2)c(=O)n(-c2ccccc2)n1C (centres undefined)
    >57 | -5.3%
> COc1cccc(C(=O)NCCN2CCN(c3ccc(Cl)cc3)CC2)c1
    >57 | -17.8%
> CCc1c(C(=O)NC2CCCCC2)[nH]c(C)c1C(C)=O
    >57 | -4.7%
> O=c1cccc2n1CC1CC2CN(C(c2cccc(F)c2)c2sc3ncnn3c2O)C1 (centres undefined)
    >57 | 3.1%
> COc1cc(C(=O)N(C)c2nnc(-c3cccnc3)s2)cc(OC)c1OC
    >57 | -6.4%
> CC(C)Cn1cc(C(=O)N2CCN(c3ccccn3)CC2)c2c3ccccc3n(C)c2c1=O
    >57 | -18.9%
> O=C(Nc1ccc(F)c(F)c1)c1cccnc1
    >57 | -0.3%
> CCCCN(C)S(=O)(=O)c1ccc(C(=O)Nc2nnc(CSC)o2)cc1
    >57 | 3.1%
> O=c1c(CCc2ccccc2)nc2cncnc2n1Cc1ccccc1Cl
    >57 | -2.0%
> Cc1cc(=O)oc2cc(O)cc(O)c12
    · | ?
> Cc1occc(=O)c1O
    · | -13.3%
> Cc1ccc(Cc2cnc(N)s2)o1
    >57 | -8.3%
> Cc1ccc(Nc2nc(C)c(CCC(C)C)c(=O)[nH]2)cc1
    >57 | -7.2%
> COC(=O)CSc1nnc(CNC(=O)c2ccccc2OC)n1C
    >57 | 2.6%
> COc1ccc2nc(NC(=O)CN(c3ccc(C)cc3)S(=O)(=O)c3c(C)nn(C)c3C)sc2c1
    >57 | ?
> Cn1c(=O)[nH]c(=O)c2c1nc(NC1CCCCC1)n2CC(=O)NC1CCCCC1
    >57 | ?
> O=C(CCOc1ccccc1)OCC(=O)c1cc2ccccc2o1
    >57 | -5.0%
> CC(=O)N1CCC2(CCCN(c3ccc(-c4ccccc4)cc3)C2)CC1
    >57 | -24.2%
> C=CCN(CC=C)S(=O)(=O)c1ccc2nc(NC(=O)C(C)C)sc2c1
    >57 | -28.6%
> CCOC(=O)C1CCN(S(=O)(=O)c2cccc3nonc23)CC1
    >57 | 2.8%
> O=C(CCCN1C(=O)c2ccccc2C1=O)NCCCN1CCOCC1
    >57 | -14.0%
> CCOC(=O)Cc1csc(NC(=O)CSc2nnc(C3CC3)n2C)n1
    · | 9.3%
> C/C(Cl)=C\CSc1nnc2n(N)c(=O)c3ccccc3n12
    >57 | 20.8%
> CCCCNC1C(CC)C(CCC)C(C#N)(C#N)C1(C#N)C#N (centres undefined)
    >57 | ?
> CCN(CC)CCCN=C(C)c1c(O)n(-c2ccccc2)c(=O)[nH]c1=O
    >57 | 7.4%
> O=C(OCc1nnc(-c2ccccc2)o1)c1ccco1
    >57 | -6.1%
> c1ccc(N2CCCC3(CCNCC3)C2)nc1
    >57 | ?
> Cn1c(C(C#N)C(=O)c2sc3ccccc3c2Cl)nc2ccccc21 (centres undefined)
    >57 | ?
> O=C(O)C1C(C(=O)O)C(C(=O)O)C1C(=O)O (centres undefined)
    >57 | 11.4%[8 µM]
> N#Cc1ccc(N2CCNCC2)c(F)c1
    >57 | -7.6%

Single values from the list:
SmPrx2 inh result of CCCCNC1C(CC)C(CCC)C(C#N)(C#N)C1(C#N)C#N (centres undefined) is entered as >57
SmPrx2 inh result of O=C(O)C1C(C(=O)O)C(C(=O)O)C1C(=O)O (centres undefined) is entered as >57
Anthrax LT inh result of O=C(OCc1nnc(-c2ccccc2)o1)c1ccco1 is entered as -6.1%

Further results follow.
Values run as follows: SmPrx2 inh | Anthrax LT inh
> O=C(NCc1ccco1)c1cccc(F)c1
    >57 | 5.4%
> CC1Cc2ccccc2N1S(=O)(=O)c1cccc(C(=O)NCCCO)c1 (centres undefined)
    >57 | -20.8%
> O=c1[nH]c(=O)n(Cc2ccco2)c(O)c1C=NC1CC1
    >57 | ?
> Cc1ccc(C(C(=O)NC2CCCC2)N(Cc2ccco2)C(=O)CCC(=O)Nc2ccccn2)cc1 (centres undefined)
    >57 | ?
> COc1ccc2ccccc2c1C1CC(=O)N2CN(C3CCCCC3)CSC2=C1C#N (centres undefined)
    >57 | ?
> O=C(CSc1nnnn1Cc1ccccc1)c1ccccc1
    >57 | -2.0%
> CCOC(=O)C(C)Sc1nc(-c2ccc(OC)cc2)nc2c1c(=O)n(C)c(=O)n2C (centres undefined)
    >57 | -6.4%
> CO[C@H]1COC(=O)C/C=C\[C@H](C)[C@H](OC)COC(=O)[C@@H](C)COC(=O)C/C=C\[C@@H]1C
    · | -1.8%&-10.9%[8 µM]
> CCCn1c(SCC(=O)NC2CCCCC2)nnc1-c1ccncc1
    >57 | -14.6%
> Cc1cccc(CNc2ccnc(-c3ccccc3Cl)n2)c1
    >57 | -15.3%
> COC(=O)c1ccc(C2C3=C(Nc4nnnn42)c2ccccc2OC3)cc1 (centres undefined)
    >57 | ?
> COc1ccc(C(NC(=O)c2ccco2)c2ccc(OC)c(OC)c2)cc1OC
    >57 | ·
> COc1ccc(C(=O)CSc2nnc(COc3ccccc3)n2Cc2ccco2)cc1
    >57 | 5.9%
> CCN1C(=O)CC(C(=O)Nc2ccc(F)cc2)SC1=Nc1ccc2c(c1)OCO2 (centres undefined)
    >57 | ?
> Cc1nc(NCc2ccccc2)c2nc(-c3ccccc3)n(CC(C)(C)CN(C)C)c2n1
    · | -5.4%
> CCOC(=O)C(C(=O)OCC)C(C)C#CCN1CCCCC1 (centres undefined)
    · | 5.3%
> O=C(N/N=C1/C[C@@H](O)[C@@H](O)[C@@H]2[C@@H]3C(=O)N(C4CCCCC4)C(=O)[C@H]3CC[C@H]12)OCc1ccccc1
    · | 12.6%[8 µM]
> Brc1ccccc1-c1nnc2sc(-c3ccc4c(c3)OCCO4)nn12
    >57 | ?
> Cc1ccc(Nc2nnc(SCc3cc(=O)n4ccsc4n3)s2)c(C)c1
    >57 | -11.1%
> N#Cc1ccccc1NC(=O)c1ccc(-c2ccccc2Cl)o1
    >57 | ?
> Cn1c(=O)cc(SCC(=O)Nc2cccnc2)c2ccccc21
    >57 | 5.0%
> Cc1ccc(CS(=O)(=O)CCC(=O)NCc2cccs2)cc1
    >57 | 12.4%
> O=C(CSc1nc2c(sc3ccccc32)c(=O)n1CCO)NCC1CCCO1 (centres undefined)
    >57 | 14.3%
> CCOC(=O)C1CCN(C(=O)c2ccc3snnc3c2)CC1
    >57 | 3.1%
> c1ccc2c(c1)-c1ccccc1C2N1CC2CCC(CC2)C1
    >57 | -17.8%[8 µM]
> CS(=O)(=O)Nc1cccc(-c2nc(NCCN3CCOCC3)c3ccccc3n2)c1
    >57 | ?
> O=C(CN1CCOCC1)Nc1ccc(C2CCCCC2)cc1
    >57 | -6.6%
> Cc1cc(Nc2nc3c(c(=O)n(C)c(=O)n3C)n2C)n(-c2ccccc2)n1
    >57 | 4.1%
> c1ccc(-c2n[nH]c3c2CCC3)cc1
    >57 | 3.8%
> CCN(CC)S(=O)(=O)c1ccc2oc(C(=O)N3CCOCC3)c(C)c2c1
    >57 | -1.8%
> COc1ccc(S(=O)(=O)N2CCC(C(=O)NCc3ccco3)CC2)cc1
    >57 | -0.3%
> Cc1cc(C)c2c(n1)nn1c(N3CCN(c4ccccn4)CC3)cc(C)nc21
    >57 | ?
> Brc1ccc(-c2nnc3sc(CN4CCc5ccccc5C4)cn23)cc1
    >57 | -8.1%
> CCOC(=O)C1=C(C)N=c2s/c(=C\c3ccncc3)c(=O)n2C1c1ccc2c(c1)OCO2 (centres undefined)
    >57 | 3.9%
> Clc1ccc2[nH]c3c(c2c1)CCc1cn[nH]c1-3
    >57 | ?
> Cc1c(O)ccc2c1OCO2
    · | 4.4%[8 µM]
> CC1(C)NC(=O)N(CCOCCOc2cccc(Oc3ccccc3)c2)C1=O
    >57 | -5.2%
> O=C(CN1CCOc2ccccc21)NCc1ccc(Cl)cc1
    >57 | ?
> c1csc(-c2cnc3ccccc3n2)c1
    >57 | 24.0%
> CCN1C(=O)CC(N2CCC(C(=O)OC)CC2)C1=O (centres undefined)
    >57 | 3.3%
> CNc1cccccc1=S
    >57 | ?
> CC(=NCc1ccco1)C1=C(O)c2ccccc2C1=O
    >57 | -1.6%
> O=c1c(-c2cccs2)nc2cnc(Oc3ccccc3)nc2n1-c1ccccc1
    >57 | ?
> CN(Cc1ccccc1)c1ncnc2c1cnn2-c1ccccc1
    >57 | ?
> S=c1[nH]c2ccccc2s1
    · | -3.7%
> CC(=O)c1ccc(NC(=O)CCn2c(=O)oc3ccccc32)cc1
    >57 | 0.1%
> O=C(CN1CCN(C2CCCCC2)CC1)Nc1ccccc1-c1ccccc1
    >57 | -2.6%
> C=CCn1cc(C(=O)NCCOC)c(=O)c2cc(S(=O)(=O)N(CC)CC)ccc21
    >57 | 6.8%
> OC(COc1c(F)cc(Br)cc1F)CN1CCN(c2ccc(F)cc2)CC1 (centres undefined)
    >57 | -11.8%
> COc1ccc(O)c(C(=O)c2cc(C#N)c(=O)n(-c3c(C)n(C)n(-c4ccccc4)c3=O)c2)c1
    >57 | ?

(further entries)
Values run as follows: SmPrx2 inh | Anthrax LT inh
> Cc1[nH]nc2c1C(=O)CCC2
    >57 | ?
> CCN1CCN(C(=O)Cn2c(=O)sc3ccccc32)CC1
    >57 | -8.0%
> Nc1nc(-c2ccccc2Br)cs1
    >57 | ·
> Cn1ccnc1SCC(=O)Nc1cccc2ccccc12
    >57 | 14.6%
> O=C(C1CCC(=O)N1Cc1ccccc1Cl)N1CCN(c2cccc(Cl)c2)CC1 (centres undefined)
    >57 | -11.1%
> CC(C(=O)NCc1ccccc1)N1C(=O)CN(C)C(=O)c2ccccc21 (centres undefined)
    >57 | 0.0%
> O=C(NC1CCCC1)C1C2C=CC3(CN(Cc4cccs4)C(=O)C13)O2 (centres undefined)
    >57 | 6.1%
> c1ccc2c(c1)CCNC2
    · | -10.0%
> Cc1ccc(C2=[N+]([O-])C3(CCCCC/C3=N\O)N(O)C2(C)C)o1 (centres undefined)
    · | -11.3%
> O=C(CSc1ncccc1-c1nc2ccccc2[nH]1)NC1CC1
    >57 | -6.3%
> OCCCCO
    · | -1.4%
> CS(=O)(=O)Nc1ccccc1C(=O)N1CCOCC1
    >57 | 5.2%
> NC(=O)c1ccccc1NS(=O)(=O)Cc1ccccc1
    · | -3.7%
> O=C(COC(=O)C12CC3CC(CC(O)(C3)C1)C2)NC(=O)NCc1ccco1
    >57 | -4.8%
> CCc1c(C)nc2[nH]nc(-c3ccccc3)n2c1=O
    · | 27.2%
> N=C(N)c1ccc(OCCCCCOc2ccc(C(=N)N)cc2)cc1
    >57 | 9.3%
> N#Cc1ccc(CN2CC3(CCN(C(=O)c4csnn4)CC3)C2)cc1
    >57 | -2.2%
> CN(C)CCCN1C(=O)C(=O)/C(=C(/O)c2ccc3c(c2)OCCO3)C1c1ccco1 (centres undefined)
    >57 | ·
> COc1ccc(-c2nc3cnc(N4CCN(C)CC4)nc3n(Cc3cccc(OC)c3)c2=O)cc1
    >57 | ?
> C=CCOc1ccc(C(=O)N(Cc2ccc(N(C)C)cc2)C2CCS(=O)(=O)C2)cc1 (centres undefined)
    >57 | ?
> Cc1ccc(OCCN2C(=O)CSC2=O)cc1
    >57 | 3.5%
> Cc1nc(N2CCN(Cc3ccccc3)CC2)nc2c1C(=O)CCC2
    >57 | ·
> c1ccc(CCNc2ccccn2)nc1
    >57 | -16.5%[8 µM]
> Cc1cc(C)c(S(=O)(=O)NCc2cn3c(C)csc3n2)c(C)c1
    >57 | -15.0%
> CC(C(=O)N1CCC2(CC1)OCCO2)C1Sc2ccccc2NC1=O (centres undefined)
    >57 | 2.8%
> CN(Cc1ccco1)c1ncnc2ccc(-c3cccc(NS(C)(=O)=O)c3)cc12
    >57 | ?
> CC(=O)c1cccc(N(C(=O)c2ccco2)C(C(=O)NC2CCCC2)c2ccncc2)c1 (centres undefined)
    >57 | 5.5%

Entries of single compounds, quoted from the list. Values in the order: SmPrx2 inh | Anthrax LT inh
Results for `Cc1c(O)ccc2c1OCO2` → · | 4.4%[8 µM]
Results for `O=C(CN1CCN(C2CCCCC2)CC1)Nc1ccccc1-c1ccccc1` → >57 | -2.6%

This is a subset; rates above refer to the full screens.
